Source: PubChem (Fisher Drug Discovery Resource Center)
NPYLR7 ag: agonists of mosquito NPYLR7 receptor, primary screen, cell-based, Aedes aegypti, calcium fluorescence, mosquito biting behavior; activation, % at 10 µM; 0.15% of 270,000 active; HEK293T NPYLR7/Galpha15, GCaMP6s calcium fluorescence; Aedes aegypti neuropeptide Y-like receptor 7 (NPYLR7); AID 1259423, 2018; in the data active = activation above about 40%;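 note: 0% = vehicle and 100% = reference agonist at the receptor; some compounds past the cut are filed as inactive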
NPYLR7 ag max-min: second read-out of NPYLR7 ag, no call of its own (marks repeat the call); activation, %; measured here: Max-Min RFU normalised activation; some inactives read as strong as hits;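 span of the calcium signal over five minutes; 0% = vehicle and 100% = native peptide agonist; compound fluorescence can raise it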
Starred values were filed as active, the others as inactive; & = joins results of further samples. The list is partial (hit frequency here may not be typical).

c1ccc2sc(Sc3nnnn3C3CC3)nc2c1 was read as NPYLR7 ag -4 and NPYLR7 ag max-min -5.
CCC1CC(C)CN1C(=O)C(C)Cc1c(C)n[nH]c1C (configuration not stated) was read as NPYLR7 ag 7 and NPYLR7 ag max-min 3.
COc1ccc(Cl)cc1NC(=O)CSc1nc(=O)n(CCCN(C)C)c2c1CCC2 was read as NPYLR7 ag -1 and NPYLR7 ag max-min -2.
Screening CCN(CCc1nc2ccc(C)cc2[nH]1)C(=O)c1cccc(-n2cnnc2)c1 returned NPYLR7 ag 21 and NPYLR7 ag max-min 6.
O=C(O)c1cccc(Nc2c(Oc3ccccc3)cnn(Cc3ccccc3)c2=O)c1 was read as NPYLR7 ag -1 and NPYLR7 ag max-min 0.
COc1ccc(CN2C[C@@H]3C4CCC(CC4)[C@@H]3C2)c(OC)c1OC was read as NPYLR7 ag -1 and NPYLR7 ag max-min 6.
For COc1ccc(N(C(C)=O)c2nc(C)cc(C)c2C#N)cc1 the results were NPYLR7 ag -1 and NPYLR7 ag max-min -5.
`O=C(c1ccc(Cl)cc1)N1CCSC1c1ccc(OCc2ccccc2)cc1` (configuration not stated) gave NPYLR7 ag 6 and NPYLR7 ag max-min 12.
Screening Cc1ccc(C2(c3noc(Cn4cc(CCO)cn4)n3)CCCC2)cc1 returned NPYLR7 ag 12 and NPYLR7 ag max-min 6.
For O=C(c1cccc(=O)[nH]1)N(Cc1ccsc1)CC1CCCO1 (configuration not stated) the results were NPYLR7 ag -4 and NPYLR7 ag max-min -9.
`CC(C)C1CN(C(=O)CCc2ccc(=O)[nH]n2)CCCN1CC1CC1` (configuration not stated) gave NPYLR7 ag 18 and NPYLR7 ag max-min 10.
`COc1cc(C)ccc1CN1CCC2(CC1)CCN(C(=O)C(C)C)CC2` gave NPYLR7 ag 2 and NPYLR7 ag max-min 12.
For CCOC(=O)C1CCCN(C(=O)c2cc(-c3ccccc3OC)n3nc(-c4ccccc4)cc3n2)C1 (configuration not stated) the results were NPYLR7 ag 15 and NPYLR7 ag max-min 24.
`CC(=O)OC[C@@H]1CN(Cc2ccccc2)C[C@H](n2ccc3c(N)ncnc32)O1` gave NPYLR7 ag -9 and NPYLR7 ag max-min -8.
CNC(=O)c1cccc(NS(=O)(=O)c2c(C)cc(C)cc2C)c1 was read as NPYLR7 ag 1 and NPYLR7 ag max-min 0.
CCSc1nc(NC(C)C)c2cnn(CCNC(=O)c3c(F)cccc3F)c2n1 was read as NPYLR7 ag -2 and NPYLR7 ag max-min -4.
CCOC(=O)C1=C(C)N=c2s/c(=C/c3ccccc3)c(=O)n2C1c1ccc(Cl)cc1 (configuration not stated) was read as NPYLR7 ag -7 and NPYLR7 ag max-min -12.
Cc1noc(C)c1S(=O)(=O)N1CCOc2c(cc(-c3ncc(C(F)(F)F)cc3Cl)cc2OCC2CCCO2)C1 (configuration not stated) was read as NPYLR7 ag 10 and NPYLR7 ag max-min 4.
For CC(C)(/C=N\O)/[N+]([O-])=C/c1ccccc1 the results were NPYLR7 ag -3 and NPYLR7 ag max-min -11.
`COC(=O)c1ccc(NC(=O)N(C)Cc2ccc(OC)c(OC)c2)cc1` gave NPYLR7 ag -1 and NPYLR7 ag max-min -1.
O=[N+]([O-])c1ccc(N=Nc2c(O)n(Cc3ccc(F)cc3)c3ccccc23)cc1 was read as NPYLR7 ag 9 and NPYLR7 ag max-min 9.
`Cc1c(Cl)cccc1S(=O)(=O)N1[C@H]2CCNC[C@@H]1CC2` gave NPYLR7 ag -4 and NPYLR7 ag max-min -4.
Screening O=C(Nc1cccc(C(=O)Nc2ccc(S(=O)(=O)O)c3cc(S(=O)(=O)O)cc(S(=O)(=O)O)c23)c1)Nc1cccc(C(=O)Nc2ccc(S(=O)(=O)O)c3cc(S(=O)(=O)O)cc(S(=O)(=O)O)c23)c1 returned NPYLR7 ag -2 and NPYLR7 ag max-min 6.
CCOC(=O)C1(Cc2cccc(OC)c2)CCCN(S(=O)(=O)c2cccc(F)c2)C1 (configuration not stated) was read as NPYLR7 ag 12 and NPYLR7 ag max-min 15.
Screening CCCOc1nn(CCC)cc1C(=O)Nc1ccccc1CC returned NPYLR7 ag 5 and NPYLR7 ag max-min -6.
`COC(=O)c1ccc(N2C(=O)CC(N3CCN(Cc4ccc5c(c4)OCO5)CC3)C2=O)cc1` (configuration not stated) gave NPYLR7 ag 0 and NPYLR7 ag max-min -2.
For COc1ccc2[nH]cc(CCNc3ncncc3Br)c2c1 the results were NPYLR7 ag 1 and NPYLR7 ag max-min 0.
Screening Cc1ccc(F)c(C(=O)N(Cc2ccco2)Cc2cc3c(cc2Cl)OCO3)c1Cl returned NPYLR7 ag -14 and NPYLR7 ag max-min -22.
Screening Cc1cc2c(cc1O)NC(=O)CC2c1ccc(Oc2ccccc2)nc1 (configuration not stated) returned NPYLR7 ag -3 and NPYLR7 ag max-min 1.
For Cc1c(Cl)cccc1Nc1ncnc2c1nnn2C the results were NPYLR7 ag 0 and NPYLR7 ag max-min 0.
`N#Cc1nc(C2CC2)oc1N1CCN(C(=O)Nc2ccccc2)CC1` gave NPYLR7 ag -3 and NPYLR7 ag max-min -3.
CCCCc1ccc(C(=O)N2CCSC2c2cc(OC)ccc2OC)cc1 (configuration not stated) was read as NPYLR7 ag -2 and NPYLR7 ag max-min 1.
Screening O=C(COC(=O)c1ccc([N+](=O)[O-])o1)NCC1CCCO1 (configuration not stated) returned NPYLR7 ag 6 and NPYLR7 ag max-min 12.
`CC(C)(C)c1csc(C2CCCCN2C(=O)c2ncccn2)n1` (configuration not stated) gave NPYLR7 ag 0 and NPYLR7 ag max-min 0.
COc1ccccc1C1SCC(=O)N1CCC(=O)NC1CC1 (configuration not stated) was read as NPYLR7 ag 20 and NPYLR7 ag max-min 27.
Screening CC(NC(=O)C1CCCN(S(=O)(=O)c2ccc(F)cc2)C1)c1ccccc1 (configuration not stated) returned NPYLR7 ag 12 and NPYLR7 ag max-min 3.
Screening CC(C)C(=O)NCC1CCCN(C(C)CCSc2ccccc2)C1 (configuration not stated) returned NPYLR7 ag -5 and NPYLR7 ag max-min -10.
COc1ccc(CN2CCC2(C)C(=O)Nc2cccc(Oc3ccccc3)c2)cc1 (configuration not stated) was read as NPYLR7 ag 8 and NPYLR7 ag max-min 0.
Screening CC(C)NC(=O)N1CC[C@@]2(C1)[C@@H](O)CN(Cc1ccccc1)S2(=O)=O returned NPYLR7 ag 7 and NPYLR7 ag max-min 13.
Screening CCCCn1c(SCC(=O)c2ccc(F)cc2)nc2ccc(N3CCOCC3)cc2c1=O returned NPYLR7 ag -4 and NPYLR7 ag max-min 1.
For COCCn1c(=O)c2c(nc3n(-c4ccccc4)c(-c4ccccc4)cn23)n(C)c1=O the results were NPYLR7 ag 0 and NPYLR7 ag max-min -3.
Cc1sc2ncnc(SCC(=O)O)c2c1C was read as NPYLR7 ag 11&-2 and NPYLR7 ag max-min 9&-3.
Screening Cc1nc(C)c(Cc2ccc(Cl)cc2)c(N2CCN(C(=O)NC(C)C)CC2)n1 returned NPYLR7 ag 9 and NPYLR7 ag max-min -2.
`CCOCCOc1nc(-c2ccc(C)cc2)n(-c2ccc(NC(=O)C3CCC3)cc2)n1` gave NPYLR7 ag 3 and NPYLR7 ag max-min 6.
Screening CC(C)C(NCC(O)COCc1ccccc1)c1nc(-c2ccc(Br)cc2)no1 (configuration not stated) returned NPYLR7 ag 19 and NPYLR7 ag max-min 21.
Screening CC(C)c1ccc(C2SCCN2C(=O)c2ccc([N+](=O)[O-])cc2)cc1 (configuration not stated) returned NPYLR7 ag 12 and NPYLR7 ag max-min 17.
For CN(Cc1nc2ccc(Cl)cc2[nH]1)C(=O)c1cn(-c2ccccc2)nn1 the results were NPYLR7 ag -11 and NPYLR7 ag max-min -15.
`Nc1ncnc(SC2=NCCS2)c1[N+](=O)[O-]` gave NPYLR7 ag 13 and NPYLR7 ag max-min 4.
CCCCCN(Cc1cccn1Cc1cccc(C(F)(F)F)c1)C(=O)CN(CC)C(=O)c1ccc(Br)cc1 was read as NPYLR7 ag -4 and NPYLR7 ag max-min 4.
Cc1ccc(C)c(NC(=O)CN(C)C(=O)C2Cc3ccccc3O2)c1 (configuration not stated) was read as NPYLR7 ag 6 and NPYLR7 ag max-min 3.
CC(C)N(CCNS(=O)(=O)c1ccccc1)C(C)C was read as NPYLR7 ag -1 and NPYLR7 ag max-min 66.
Screening CCOC(=O)c1[nH]c(C)c(C(=O)OCC(=O)c2cc(C)n(-c3nccs3)c2C)c1C returned NPYLR7 ag -2 and NPYLR7 ag max-min -2.
Screening COc1ccc2cc(C(=O)NC(C)c3cccc(N4CCOC4=O)c3)[nH]c2c1 (configuration not stated) returned NPYLR7 ag 8 and NPYLR7 ag max-min 5.
Cc1nc(N)nc(C)c1CC(=O)N1CC(c2ccncc2)C1 was read as NPYLR7 ag 16 and NPYLR7 ag max-min 13.
Screening CC1CCc2c(sc(NC(=O)C(C)Oc3cccc(Cl)c3)c2C(=O)Nc2ccccn2)C1 (configuration not stated) returned NPYLR7 ag -5 and NPYLR7 ag max-min -6.
For COc1cc2nc(N(C)CCCNC(=O)C3CCCO3)nc(N)c2cc1OC (configuration not stated) the results were NPYLR7 ag -7&-9&-9 and NPYLR7 ag max-min -8&-12&-11.
Cc1cc(C)c(C)c(OCC(=O)Nc2ncn[nH]2)c1 was read as NPYLR7 ag 1 and NPYLR7 ag max-min -2.
O=C(c1ccccn1)C1CCCN(C(=O)Cn2nnnc2CN2CCCC2)C1 (configuration not stated) was read as NPYLR7 ag 17 and NPYLR7 ag max-min 8.
Screening CN1CCN2CCN(C(=O)c3ccc(C#CC(C)(C)O)o3)CC2C1 (configuration not stated) returned NPYLR7 ag 7 and NPYLR7 ag max-min 5.
Screening O=C(O)C1CC2CCCCC2N1C(=O)c1ccc(F)cc1F (configuration not stated) returned NPYLR7 ag 5 and NPYLR7 ag max-min 4.
Screening C=CCn1c(SCC(=O)NCCCN2CCOCC2)nc2sc3c(c2c1=O)CCC3 returned NPYLR7 ag -1 and NPYLR7 ag max-min -4.
`CCOC(=O)C1=C(C)N=c2s/c(=C\c3ccc(SC)cc3)c(=O)n2C1c1ccc(SC)cc1` (configuration not stated) gave NPYLR7 ag 0 and NPYLR7 ag max-min 2.
`Cc1cccc(CN(Cc2ccccc2)Cc2cccn2Cc2cccc(C)c2)c1` gave NPYLR7 ag 3 and NPYLR7 ag max-min 9.
Screening Cc1cccnc1N1CCN(C2CCN(C(=O)C(C)C)CC2)CC1 returned NPYLR7 ag 7 and NPYLR7 ag max-min 4.
`Cc1ccc(C)c(C(C)NCC(=O)N(C)Cc2ccco2)c1` (configuration not stated) gave NPYLR7 ag 2 and NPYLR7 ag max-min 4.
CC(C)N(C(=O)NC(=O)C1=C(N2CCOCC2)/C(=C\c2ccccc2)CCC1)S(C)(=O)=O was read as NPYLR7 ag 4 and NPYLR7 ag max-min 1.
For CCNC(=O)C1Cc2ccccc2N1C(=O)Nc1cccs1 (configuration not stated) the results were NPYLR7 ag -14 and NPYLR7 ag max-min -21.
For O=C(Nc1ccc(C(F)(F)F)cc1)N1CCN(Cc2cccnc2)CC1 the results were NPYLR7 ag 2 and NPYLR7 ag max-min 1.
Screening O=C(CN1CN(c2ccccc2)C2(CCN(C(=O)C3CC3)CC2)C1=O)NCc1ccc(F)cc1 returned NPYLR7 ag -3 and NPYLR7 ag max-min 0.
Screening Cc1nc(C(=O)NCC(=O)N2CCCCC2)nn1-c1ccccc1Cl returned NPYLR7 ag -6 and NPYLR7 ag max-min -7.
Screening Cc1nn(-c2ccccc2)c(C)c1C(=O)NC1=NCCS1 returned NPYLR7 ag 11 and NPYLR7 ag max-min 14.
CC1CCCN(C(=O)CN2CCCC2C2CCCCC2)C1 (configuration not stated) was read as NPYLR7 ag 3 and NPYLR7 ag max-min 4.
Screening Cc1cnn(C(C)C(=O)NCc2cccnc2Oc2ccccc2C)c1 (configuration not stated) returned NPYLR7 ag -2 and NPYLR7 ag max-min -3.
COc1cccc(OCC(O)Cn2ccnc2-c2nccn2C)c1 (configuration not stated) was read as NPYLR7 ag 0 and NPYLR7 ag max-min -3.

Entries from the list above with fluorine (11):
CCSc1nc(NC(C)C)c2cnn(CCNC(=O)c3c(F)cccc3F)c2n1 was read as NPYLR7 ag -2 and NPYLR7 ag max-min -4.
Cc1noc(C)c1S(=O)(=O)N1CCOc2c(cc(-c3ncc(C(F)(F)F)cc3Cl)cc2OCC2CCCO2)C1 (configuration not stated) was read as NPYLR7 ag 10 and NPYLR7 ag max-min 4.
O=[N+]([O-])c1ccc(N=Nc2c(O)n(Cc3ccc(F)cc3)c3ccccc23)cc1 was read as NPYLR7 ag 9 and NPYLR7 ag max-min 9.
CCOC(=O)C1(Cc2cccc(OC)c2)CCCN(S(=O)(=O)c2cccc(F)c2)C1 (configuration not stated) was read as NPYLR7 ag 12 and NPYLR7 ag max-min 15.
Screening Cc1ccc(F)c(C(=O)N(Cc2ccco2)Cc2cc3c(cc2Cl)OCO3)c1Cl returned NPYLR7 ag -14 and NPYLR7 ag max-min -22.
Screening CC(NC(=O)C1CCCN(S(=O)(=O)c2ccc(F)cc2)C1)c1ccccc1 (configuration not stated) returned NPYLR7 ag 12 and NPYLR7 ag max-min 3.
Screening CCCCn1c(SCC(=O)c2ccc(F)cc2)nc2ccc(N3CCOCC3)cc2c1=O returned NPYLR7 ag -4 and NPYLR7 ag max-min 1.
CCCCCN(Cc1cccn1Cc1cccc(C(F)(F)F)c1)C(=O)CN(CC)C(=O)c1ccc(Br)cc1 was read as NPYLR7 ag -4 and NPYLR7 ag max-min 4.
Screening O=C(O)C1CC2CCCCC2N1C(=O)c1ccc(F)cc1F (configuration not stated) returned NPYLR7 ag 5 and NPYLR7 ag max-min 4.
For O=C(Nc1ccc(C(F)(F)F)cc1)N1CCN(Cc2cccnc2)CC1 the results were NPYLR7 ag 2 and NPYLR7 ag max-min 1.
Screening O=C(CN1CN(c2ccccc2)C2(CCN(C(=O)C3CC3)CC2)C1=O)NCc1ccc(F)cc1 returned NPYLR7 ag -3 and NPYLR7 ag max-min 0.
